Assay outcomes from PubChem.
HIV TAR-Tat: HIV-1 TAR-Tat binding disruption. HIV-1 TAR RNA, Tat peptide displacement FRET; stronger effect = higher value. z-score (no concentration beside the values). 0.6% of 100,000 active. AID 1259389;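 further: score is relative to mean and SD of negative controls; some compounds called inactive have numbers as strong as hits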
CDC25B CDK2 inh: human CDC25B-CDK2/CyclinA binding inhibition. P30305+P24941. HTRF CDC25B-CDK2/CyclinA binding, anti-His/anti-Flag; stronger effect = higher value. z-score (no concentration beside the values). 0.72% of 94,000 active;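 further: score is relative to mean and SD of negative controls; strong numbers were not always called active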
Active calls of the source: *; . = no result given.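 How the source made its calls: active means z-score from 3 up in half or more of its runs; inactive means the rest.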

The first six compounds (preview)
SMILES | HIV TAR-Tat | CDC25B CDK2 inh
O=S(=O)(c1cc(-c2noc(C3CC3)n2)cs1)N1CCc2ccccc2C1 | 0.43 | .
CC1CCc2sc3ncnc(N4CCCC4)c3c2C1 (stereo not drawn) | 1 | .
CCOC(=O)c1c(NS(=O)(=O)c2ccc(C(F)(F)F)cc2)sc(C)c1-c1ccccc1 | . | -2.2
CCC(C(=O)Nc1nnc(Cc2cn(C)c3ccccc23)s1)N1C(=O)COc2ccccc21 (stereo not drawn) | 1.7 | .
CC(O)CN(CC(C)O)c1ncnc2c1oc1nc3c(cc12)COC(C)(C)C3 (stereo not drawn) | 0.21 | .
Cc1cc2ncn(-c3ncnc4sc(C)c(C)c34)c2cc1C | . | -2.4

All compounds of this part, previewed entries included:
SMILES | HIV TAR-Tat | CDC25B CDK2 inh
O=S(=O)(c1cc(-c2noc(C3CC3)n2)cs1)N1CCc2ccccc2C1 | 0.43 | .
CC1CCc2sc3ncnc(N4CCCC4)c3c2C1 (stereo not drawn) | 1 | .
CCOC(=O)c1c(NS(=O)(=O)c2ccc(C(F)(F)F)cc2)sc(C)c1-c1ccccc1 | . | -2.2
CCC(C(=O)Nc1nnc(Cc2cn(C)c3ccccc23)s1)N1C(=O)COc2ccccc21 (stereo not drawn) | 1.7 | .
CC(O)CN(CC(C)O)c1ncnc2c1oc1nc3c(cc12)COC(C)(C)C3 (stereo not drawn) | 0.21 | .
Cc1cc2ncn(-c3ncnc4sc(C)c(C)c34)c2cc1C | . | -2.4
Clc1ccc(-c2nnn3c2nc(Cl)c2ccccc23)cc1 | 2.4 | -2.3
COc1ccc(N2C(=O)c3cccc4c(N5CCOCC5)ccc(c34)C2=O)cc1 | -0.04 | -0.87
Cc1cccc(N2CCN(C(=O)[C@H]3[C@@H]4C[C@@H]5[C@H]3C(=O)O[C@@H]5C4)CC2C)c1 (stereo partly drawn) | 2.7 | -2
Cc1cccc(C)c1NC(=O)C(C)N (stereo not drawn) | 0.65 | -2.7
COC(=O)c1ccc2c(c1)nnn2Cc1ccc(F)cc1 | 1.8 | .
C[N+]1(C)C[C@H](O)[C@H](C(=O)[O-])C1 | 3.2 | .
Cc1sc2ncnc(Oc3cccc(F)c3)c2c1C | -0.72 | .
CCOc1ccc(-n2nnc3c(sc4nc(C)ccc43)c2=O)cc1 | 1.4 | -0.35
CN(C)/C=C/C(=N)SCc1c(F)cccc1Cl | . | -2.9
CCCCCCCCCCn1c(SCC(N)=O)nc2c1c(=O)[nH]c(=O)n2C | . | -1.8
COc1cc2cc(-c3ccccc3)nc(C)c2cc1OC | -0.11 | -1.6
CS(=O)(=O)Nc1cc(-c2ccccc2)sc1C(N)=O | . | -3
Cc1ccccc1S(=O)(=O)Nc1ncn(Cc2ccc(Cl)cc2)n1 | -0.19 | -0.96
COc1ccc(C2N3CC4(C)CN2CC(C)(C3)C4)cc1 (stereo not drawn) | 1.9 | -2.3
CN(C)CC[C@@H](c1ccc(Cl)cc1)c1ccccn1 | 0.58 | -2
CSc1nsc(SCC(=O)Nc2ccc(Br)cc2F)n1 | -0.25 | -1.7
CCN(c1ccccc1)S(=O)(=O)c1cc(-c2cc(C)no2)ccc1C(C)C | -0.42 | .
CCCNC(=O)Nc1[nH]c(C)c(C(=O)OCC)c1C | -0.12 | -0.49
O=C(NCC1CCCO1)c1nn2c(C(F)(F)F)c3c(nc2c1Cl)-c1ccccc1CC3 (stereo not drawn) | 0.23 | -1.8

(listing goes on)
SMILES | HIV TAR-Tat | CDC25B CDK2 inh
COc1ccc(OCCNC(=O)CCCO)cc1 | . | -2
Fc1cc(F)cc(-c2noc3ncnc(Nc4ccc(-c5ccno5)cc4)c23)c1 | 1 | .
O=C1/C(=C\c2ccccc2)N=C2SCCCCN12 | . | 0.23
O=C(NC1CCCC1)c1ccc2c(c1)CC(c1ccccc1)OC2=O (stereo not drawn) | -1.3 | -0.25
Cc1cc(C)cc(OCC(=O)Nc2nc(-c3ccc(C)s3)ns2)c1 | -0.61 | -0.32
O=C(CCC(=O)N1Cc2cccn2-c2ccccc21)NC1CC1 | 2.3 | .
Cc1nc2sccn2c(=O)c1S(=O)(=O)N1CCN(c2ccccc2)CC1 | 2.6 | .
O=C(NCC1CCN(C2CCCC2)C1)Nc1ccccc1 (stereo not drawn) | 2.1 | -3.3
c1ccc(C2Cn3nnnc3-c3ccccc3O2)cc1 (stereo not drawn) | . | -1.6
Cc1ccsc1CN(Cc1ccco1)C(=O)C(C)Oc1cc(C)c(Cl)c(C)c1 (stereo not drawn) | -0.48 | 0.17
O=C(Nc1ccc(F)cc1F)c1csc2c1CCCCC2 | 1.3 | -1.9
COCCCN1C(=O)c2oc3ccc(C)cc3c(=O)c2C12C(=O)N(C)c1ccccc12 (stereo not drawn) | 1.2 | -0.88
CCOc1cc(C2c3c(n[nH]c3C)C(=O)N2c2ccc(Br)cc2)ccc1O (stereo not drawn) | 1.6 | .
C1CCc2nnnn2CC1 | 1.9 | -2
CCn1c(Cn2nc(C)cc2C)nc2cc(NC(C)=O)ccc21 | 0.57 | -0.48
O=S(=O)(c1ccc(Cl)cc1)N(Cc1nc(-c2ccccc2)no1)C1CCCCC1 | -0.39 | -0.89
CCCCCOc1ccc(N2C(=O)C3C4C=CC(CC4)C3C2=O)cc1 (stereo not drawn) | -1.2 | -1
O=c1c(NCc2cccs2)nccn1-c1ccc(Br)cc1 | -1.5 | .
CCNC(=O)c1sc(-n2cccc2)nc1C | 0.68 | -0.55
O=c1oc2ccc(Br)cc2cc1-c1nnc(Nc2cccc(C(F)(F)F)c2)s1 | . | -3.2
CCOC(=O)c1c(S(=O)(=O)NCCN(C)C2CCCCC2)c(C)n(C)c1C | 0.22 | .
CSC(=NCc1c(N)cccc1F)NC#N | . | -1
CN(C)CCNc1ncnc2c1c(-c1ccccc1)cn2-c1ccc(Cl)cc1 | -0.63 | -1.8
CO[C@H]1O[C@H](CO)[C@@H](O)[C@H](O)[C@@H]1O | . | -1.4
CC1CCCC(C)N1CCCNC(=O)c1noc2c1CSc1ccccc1-2 (stereo not drawn) | -0.32 | 0.42

Brought forward from above: 4 entries; new compounds follow.
SMILES | HIV TAR-Tat | CDC25B CDK2 inh
CSC(=NCc1c(N)cccc1F)NC#N | . | -1
CN(C)CCNc1ncnc2c1c(-c1ccccc1)cn2-c1ccc(Cl)cc1 | -0.63 | -1.8
CO[C@H]1O[C@H](CO)[C@@H](O)[C@H](O)[C@@H]1O | . | -1.4
CC1CCCC(C)N1CCCNC(=O)c1noc2c1CSc1ccccc1-2 (stereo not drawn) | -0.32 | 0.42
Cc1nc(Nc2ccc(S(=O)(=O)Nc3ccccn3)cc2)cc(-c2ccccc2)n1 | 1.8 | -0.08
Cc1cc(NCC(C)C)n2nc(C)c(-c3ccc(F)cc3)c2n1 | -0.38 | -1.4
O=C(CCc1nnc2ccc(N3CCCCC3)nn12)NCCC1=CCCCC1 | 0.54 | .
C=CCOC(=O)c1[nH]c2c(c1C)C(=O)CC(c1ccc(N(C)C)cc1)C2 (stereo not drawn) | -0.25 | -0.51
O=C(Nc1ccccc1)c1cc(-c2cccs2)on1 | 0.05 | -1.9
CCOc1ccc(NC(=O)NC(C)c2c(-n3cccc3)sc(C)c2C)cc1 (stereo not drawn) | 0.41 | -2.4
COc1cccc(N2C(=O)C3C4c5ccccc5C(c5ccccc54)C3C2=O)c1 (stereo not drawn) | 1 | -0.19
CCOC(=O)c1ccc2c(c1)N(Cc1ccc(Cl)c(Cl)c1)C1CCCCN21 (stereo not drawn) | . | -1.6
CCOC(=O)c1sc(Nc2nc(C)c(CC)c(OC)n2)nc1C | 0.78 | 0.22
COc1ccc2c(c1)c(=O)oc1cc3occ(C(C)(C)C)c3cc12 | 4.6 | 1
O=C1c2ccccc2S(=O)(=O)N1c1ccc(F)cc1 | -0.77 | -0.55
O=S(=O)(NC1CCCCC1)c1ccc(-c2cc(C(F)(F)F)on2)s1 | 0.44 | .
Clc1cccc(-n2ncnc2-c2ccc(Br)cc2)c1 | 2.2 | -0.53
Cc1noc2ncnc(N3CCC(C(=O)NC4CCCCC4)CC3)c12 | 1.2 | .
Cc1ccc(-c2nc(NC(=O)CSc3ncn[nH]3)ns2)cc1 | -0.9 | -0.72
CCOC(=O)Cn1c(C2CC(=O)N(c3ccc(Cl)cc3)C2)nc2ccccc21 (stereo not drawn) | 0.78 | -1.1
CSc1cccc(Nc2nnc(-c3cc4c(CO)cnc(C)c4oc3=O)s2)c1 | -0.05 | .
CCCCc1nn2c(=O)cc(CSc3n[nH]c(-c4ccc(OC)cc4)n3)nc2s1 | -0.62 | .
Cc1ccccc1-c1nc(SCC(=O)Nc2nccs2)n2[nH]c(=O)cc2n1 | 1.1 | .
O=c1ccc2cc(S(=O)(=O)NCCC3=CCCCC3)ccc2[nH]1 | 1.9 | .
CCn1cc(C2=NOC(C(=O)NCc3ccccn3)C2)c(C)n1 (stereo not drawn) | 0.24 | -1.9
Nc1nc(-c2cccnc2)nn1S(=O)(=O)c1ccccc1 | -0.38 | -0.54
CC1Cc2ccccc2N1S(=O)(=O)c1nnc(NC(=O)c2cccs2)s1 (stereo not drawn) | -2 | 0.11
Cc1oc(-c2ccc(Cl)cc2)cc1C(=O)C(C#N)=C1SCCS1 | . | -2.6
COC(=O)c1cc(COc2ccc3c4c(c(=O)oc3c2C)CCC4)c(C)o1 | . | 0.73

Further results:
SMILES | HIV TAR-Tat | CDC25B CDK2 inh
Nc1nc(N2CCN(Cc3ccccc3)CC2)nc(Nc2ccccc2)c1[N+](=O)[O-] | 1.9 | .
Cc1ccc(S(=O)(=O)N(CCS(=O)(=O)N2CCNCC2)CC(C)c2ccccc2)cc1C (stereo not drawn) | 2.6 | .
CCOC(=O)/C(=C\Nc1ccc(F)c(Cl)c1)S(=O)(=O)c1ccc(Cl)cc1 | . | -1.2
Cn1ncc2c(N3CCOCC3)nc(N3CCOCC3)nc21 | 1.7 | .
CSc1cccc(NC(=O)c2c(C)oc3nc(C)nc(N4CCCC4)c23)c1 | 1.6 | .
Cc1ccc(-c2noc3ncnc(NCc4ccccc4)c23)cc1 | 1.2 | .
O=S(=O)(c1ccc(F)cc1)N1CCC(Cc2ccccc2)CC1 | -0.09 | 0.18
O=c1c2cccnc2n(Cc2ccc(F)cc2)c(=O)n1Cc1ccco1 | 0.51 | 0.9
COc1ccc(S(=O)(=O)N(c2ccc(Cl)cc2)S(=O)(=O)c2ccc(F)cc2F)cc1 | . | -0.7
CCc1nnc(SCC(=O)Nc2cc(Cl)ccc2OC)c2cc3sccc3n12 | 3 | .
Cc1ccc2c(c1)N(C(=O)Nc1ccc(Br)cc1F)CC(C)O2 (stereo not drawn) | 0.85 | .
O=C(Nc1cccc(Cl)c1)c1cc2ccccc2c(=O)s1 | 0.58 | -2.1
Cc1ccc(Cl)cc1-n1ncc2c(NCCCOC(C)C)ncnc21 | 2.6 | .
Cc1ccc(S(=O)(=O)N2CCN(Cc3nc4ccc(C)cc4o3)CC2)c(C)c1 | 1.1 | .
Cc1c(C(=O)N2CCCCC2)oc2ccc(S(=O)(=O)N3CC(C)CC(C)C3)cc12 (stereo not drawn) | . | -0.35
Cc1nc2c(C)cccn2c(=O)c1NC(=O)CCC1CCCCC1 | 0.81 | .
Cc1ccc2oc(=O)c3cc(C(=O)N4CCN(C(=O)c5ccco5)CC4)sc3c2c1 | . | -1.6
CCc1nnc(SCc2cccc(F)c2)c2cc3oc(C)cc3n12 | 0.69 | .
O=C(NC1CCCC1)C1c2ccccc2Oc2ccccc21 | 0.27 | -1.8
CCn1nnnc1SCC(=O)N1CCN(c2ccccc2)CC1 | . | -4.6
COc1c(NC(=O)N(C)C)csc1Cl | . | -1.2
COc1cccc(N2C(=O)CC3(CC(C(=O)OCc4ccccc4)=NN3)C2=O)c1 (stereo not drawn) | 1.1 | -0.56
CCOC(=O)c1nn(-c2ccc(C)c(Cl)c2)c(=O)c(C#N)c1C | -0.43 | 0.76
COc1cccc(/C=C/c2nc(C#N)c(NCCN(C)C)o2)c1 | 1.9 | -2.7
CCOCCCNC(=O)Nc1cn(C)c(=O)c2ccccc12 | -0.82 | 1.9

Reprinted at random: 4 entries already listed
SMILES | HIV TAR-Tat | CDC25B CDK2 inh
Cn1ncc2c(N3CCOCC3)nc(N3CCOCC3)nc21 | 1.7 | .
O=S(=O)(c1ccc(F)cc1)N1CCC(Cc2ccccc2)CC1 | -0.09 | 0.18
O=c1c2cccnc2n(Cc2ccc(F)cc2)c(=O)n1Cc1ccco1 | 0.51 | 0.9
COc1cccc(N2C(=O)CC3(CC(C(=O)OCc4ccccc4)=NN3)C2=O)c1 (stereo not drawn) | 1.1 | -0.56

Remaining list, next part
SMILES | HIV TAR-Tat | CDC25B CDK2 inh
Cc1ccc(C(C)C)c(OCC(=O)Oc2ccc(-n3cnnn3)cc2)c1 | 0.61 | 1.1
CCc1ccc(CN(C(=O)c2nc(SC)ncc2Cl)C2CCS(=O)(=O)C2)cc1 (stereo not drawn) | 2 | 0.03
Cc1cc(O)c(C(c2ccccc2)N2CCN(c3ccccn3)CC2)c(=O)n1Cc1ccco1 (stereo not drawn) | 0.32 | .
COc1ccc(-c2noc(CSc3nnc(-c4ccncc4)n3-c3ccc(F)cc3)n2)cc1OC | 1.9 | 0.43
O=C(NCCCN1CCc2ccccc2C1)C1CCCN(c2nnc(N3CCCC3=O)s2)C1 (stereo not drawn) | 2.1 | 0.59
CC1=CC(=O)N(CCNC(=O)C2CCCNC2=O)C1=O (stereo not drawn) | . | -1.3
Cc1ccc(S(=O)(=O)NCC2CCCO2)cc1-c1nnc2c3ccccc3c(C)nn12 (stereo not drawn) | 0.33 | 0.55
CCOC(=O)CC1(NC(=O)N2CCC3(CC2)Nc2cc(F)ccc2-n2cccc23)CCCCC1 | -0.63 | .
O=C(Nc1ccc(F)cc1)C1CC(=O)n2ncnc2N1 (stereo not drawn) | -0.34 | -1.4
C=CCOc1ccc(C2NC(=O)NC(C)=C2C(=O)OC)cc1 (stereo not drawn) | . | 0.64
Cc1ccc(-c2noc(CN(C(=O)c3ccc(C)cc3C)C(C)C)n2)cc1 | 0.49 | 1.5
CCCCCCn1c(=O)c2c(nc(NCc3ccco3)n2C)n(C)c1=O | -0.2 | 1.1
O=C(NC1CCCC1)C1CC(=O)N(c2cccc(-c3noc(-c4cccs4)n3)c2)C1 (stereo not drawn) | 0.77 | .
